BJeLR viability: BJeLR cell viability reduction | 0.64% of 30,000 active | viability loss activity score, % (no concentration beside the values) | BJeLR fibroblasts viability, CellTiterGlo ATP luminescence, 48 h; HRASV12, hTERT and SV40 LT/ST transformed | AID 2275; in the data active = viability loss activity score above about 50%; about a fifth of its hits are not listed in these tables;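 also: higher score means fewer live cells and less ATP luminescence; stock transfer was 50 or 100 nL into about 30 µL; 0% = vehicle wells and 100% = a reference killing control; one replicate is shown; the record names a cut of 85%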
A1 inhib: inhibitors of A1; MEF A1-2A-BIM cells, caspase-Glo luminescence, 3 h; percent of clofoctol signal, DMSO as zero; caspase activation, % (no concentration beside the values); 0.51% of 21,000 active;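 active = most replicate scores above 10, or exactly half above 10 with mean activity above 10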;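 also: effector caspase 3 and 7 activity cleaving a DEVD luciferin substrate; 50 nL library stock added to about 30 µL; numbers are from one replicate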
Numbers without * were called inactive; . = not tested or not shown. Not all compounds are listed; count on the stated rates, not on these rows.

Structure | BJeLR viability | A1 inhib
C[C@@H]1CN([C@@H](C)CO)C(=O)c2cc(NS(C)(=O)=O)ccc2O[C@@H]1CN(C)Cc1ccc(-c2ccccc2)cc1 | -3.1 | 0.2
C[C@H]1CN([C@@H](C)CO)C(=O)c2cc(NC(=O)Nc3cccc4ccccc34)ccc2O[C@H]1CN(C)S(C)(=O)=O | 2.3 | 0.3
CC(=O)OC(C(=O)N1CCN(C(c2ccccc2)c2ccccc2)CC1)c1ccccc1 (stereo not given) | -0.6 | .
CC(C)NC(=O)N(C)C[C@H]1Oc2ccc(NC(=O)Nc3ccc4c(c3)OCO4)cc2C(=O)N([C@@H](C)CO)C[C@@H]1C | -1.0 | -0.2
CC(=O)ON1C(C)(C)CC(OC(=O)c2ccco2)CC1(C)C | -1.8 | 0.6
CN(C)CCN1C(=O)c2ccccc2N(C)c2ccccc21 | 4.8 | 0.8
CN(Cc1ccccc1)C(=O)c1cccs1 | -3.1 | 0.5
C[C@@H]1CN([C@H](C)CO)C(=O)c2cccc(NC(=O)c3ccncc3)c2O[C@H]1CN(C)Cc1ccc(C(=O)O)cc1 | 1.9 | .
C[C@H](CO)N1C[C@H](C)[C@H](CN(C)Cc2ccc(C(=O)O)cc2)Oc2ccc(NC(=O)Nc3ccc(F)cc3)cc2C1=O | -0.7 | 0.2
CC(C)(C)C1=CC(=O)c2c(ccc(C(C)(C)C)c2O)C1=O | -2.7 | .
NS(=O)(=O)c1ccc(NC(=O)C(Sc2ccccc2)c2ccccc2)cc1 (stereo not given) | 7.3 | 2.2
CCOC(=O)C1C(c2ccccc2)NC(=S)NC1(O)C(F)(F)F (stereo not given) | 1.8 | .
C[C@@H]1CN([C@H](C)CO)C(=O)c2cc(NS(=O)(=O)c3ccc(F)cc3)ccc2O[C@H]1CN(C)C(=O)Nc1ccc(F)cc1 | -0.5 | -0.1
C(=N\n1cnnc1)/c1cccs1 | -5.5 | 0.4
NC(=NC(=O)CCn1c(=O)oc2ccccc21)c1ccc(C(F)(F)F)cc1 | -3.9 | 0.0
COc1ccc(CCNC(=O)c2ccc(C3SCC(=O)N3Cc3ccccc3)cc2)cc1OC (stereo not given) | -1.9 | .
O=C(CCCc1ccccc1)NCCc1cn2ccccc2n1 | 2.8 | 0.3
CCCCC(=O)N(Cc1ccc(-c2ccccc2-c2nn[nH]n2)cc1)[C@H](C(=O)O)C(C)C | -2.3 | -0.1
CC(Oc1ccccc1)C(=O)NCCc1ccc(S(N)(=O)=O)cc1 (stereo not given) | -1.0 | 0.0
CCCOc1ccc(Oc2nc(N(C)C)nc(N(C)C)n2)nn1 | -4.9 | 0.5
CC(=O)N1c2ccccc2NC2=C(C(=O)CCC2)C1c1ccc(N(C)C)cc1 (stereo not given) | -1.4 | .
Cc1cc(C(=O)Nc2cccc3c2O[C@H](CN(C)Cc2ccc(Oc4ccccc4)cc2)[C@@H](C)CN([C@@H](C)CO)C3=O)n(C)n1 | -3.8 | .
O=C(N1CCN=C1c1ccccc1)N1c2ccccc2Sc2ccccc21 | -2.7 | 0.0
CC1CCN(CCNC(=O)C2CCCN(S(=O)(=O)c3cccc4nsnc34)C2)CC1 (stereo not given) | 2.9 | .
C[C@@H]1CN([C@@H](C)CO)C(=O)c2cccc(NC(=O)Nc3ccc4c(c3)OCO4)c2O[C@@H]1CN(C)C(=O)NC1CCCCC1 | -2.4 | .
COc1ccc(Cn2c(=O)c3[nH]cnc3n(-c3cc(S(C)=O)ccc3C)c2=O)cc1 (stereo not given) | 2.7 | -0.1
Cc1ccnc(SCn2c(=S)sc3ccccc32)n1 | 1.4 | -0.1
CCCCC/C=C/C=C/C(O)CCCCCCCC(=O)O (stereo not given) | -4.6 | 1.1
C[C@@H]1CN([C@H](C)CO)C(=O)c2cc(NS(=O)(=O)c3cccs3)ccc2O[C@@H]1CN(C)S(=O)(=O)c1cccs1 | 3.7 | -0.1
FC(F)(F)c1ccccc1-n1ccnc1 | -1.4 | 0.2
CCSC1=C(C#N)C(=O)NC(C(C)C)S1 (stereo not given) | -1.9 | -4.2
COc1ccc(S(=O)(=O)Nc2cccc3c2O[C@@H](CN(C)C(=O)Nc2cccc4ccccc24)[C@@H](C)CN([C@H](C)CO)C3=O)cc1 | 4.2 | .

Compound profiles (already shown). Values in the order: BJeLR viability | A1 inhib
COc1ccc(S(=O)(=O)Nc2cccc3c2O[C@@H](CN(C)C(=O)Nc2cccc4ccccc24)[C@@H](C)CN([C@H](C)CO)C3=O)cc1 across the screens: 4.2 | .
C[C@@H]1CN([C@H](C)CO)C(=O)c2cc(NS(=O)(=O)c3cccs3)ccc2O[C@@H]1CN(C)S(=O)(=O)c1cccs1 across the screens: 3.7 | -0.1
COc1ccc(Cn2c(=O)c3[nH]cnc3n(-c3cc(S(C)=O)ccc3C)c2=O)cc1 (stereo not given) across the screens: 2.7 | -0.1

(more compounds)
Structure | BJeLR viability | A1 inhib
Cc1noc(C)c1NC(=O)Nc1ccc2c(c1)C(=O)N([C@H](C)CO)C[C@H](C)[C@@H](CN(C)Cc1ccc(C(=O)O)cc1)O2 | 1.8 | -0.2
O=c1[nH]cnc2nc(-c3ccccc3)c(-c3ccccc3)nc12 | 1.3 | 2.9
C[C@H]1CN([C@@H](C)CO)C(=O)c2cc(NC(=O)Cc3ccccc3)ccc2O[C@@H]1CN(C)Cc1ccc2c(c1)OCO2 | 3.8 | 0.1
COc1ccc(S(=O)(=O)Nc2cccc3c2O[C@H](CN(C)S(=O)(=O)c2ccc(C)cc2)[C@@H](C)CN([C@H](C)CO)C3=O)cc1 | 3.4 | .
C[C@H]1CN([C@@H](C)CO)C(=O)c2cccc(NC(=O)C3CCCCC3)c2O[C@@H]1CN(C)Cc1ccc2c(c1)OCO2 | 3.9 | .
CC(=O)N1N=C(c2ccc(C(C)(C)C)cc2)OC1(C)C | -1.3 | .
O=C(CSc1ncnc2c1nnn2Cc1ccc(F)cc1)c1ccccc1 | 0.2 | -2.3
Cc1ccc(CNC(=O)c2cccnc2Sc2cccc(C(F)(F)F)c2)cc1 | -4.9 | 0.1
CN(C)c1oc(-c2ccc(Cl)cc2)nc1C#N | -0.8 | -1.9
C[C@@H]1CN([C@H](C)CO)C(=O)c2cccc(NC(=O)NC3CCCCC3)c2O[C@@H]1CN(C)Cc1ccc(Oc2ccccc2)cc1 | 1.0 | .
C[C@H](CO)N1C[C@H](C)[C@H](CN(C)C(=O)Nc2cccc3ccccc23)Oc2ccc(NC(=O)Nc3ccccc3)cc2C1=O | -1.6 | -0.5
COc1ccc([C@H]2OC[C@H]3[C@@H]2CO[C@@H]3c2ccc(O[C@@H]3O[C@H](CO)C(O)[C@H](O)[C@H]3O)c(OC)c2)cc1OC (stereo not given in full) | -1.1 | -0.1
C[C@H](CO)N1C[C@H](C)[C@H](CN(C)Cc2ccc(Cl)c(Cl)c2)Oc2c(NC(=O)Nc3ccc(F)cc3)cccc2C1=O | -3.6 | .
S=c1nn[nH]n1CCc1ccc(Cl)cc1 | -2.3 | -2.0
CNc1ccccc1C(=O)N1CCc2c([nH]c3ccccc23)C1=O | 0.6 | 1.1
O=C(Cc1ccccc1)Nn1c(SCC(=O)c2ccccc2)nc2ccccc2c1=O | -11.4 | 0.6
Cc1noc(C)c1NC(=O)Nc1ccc2c(c1)C(=O)N([C@H](C)CO)C[C@@H](C)[C@H](CN(C)C(=O)Nc1c(C)noc1C)O2 | 3.4 | -0.5
O=C(NC1CCCCC1)c1ccc2c(Cl)c3c(nc2c1)CCCC3 | -4.4 | .
COc1ccc(NC(=O)N(C)C[C@H]2Oc3ccc(NS(=O)(=O)c4ccc(C)cc4)cc3C(=O)N([C@@H](C)CO)C[C@@H]2C)cc1 | -0.7 | -0.4
CCc1ccc(NC2SC(=O)N(c3ccccc3)C2=O)cc1 (stereo not given) | 0.9 | .
Cc1ccn2cc(-c3cccc(NS(=O)(=O)c4cc(C)c(C)cc4C)c3)nc2c1 | -1.7 | .
O=S(=O)(NCC1CCCO1)c1ccc2oc3ccc(S(=O)(=O)NCC4CCCO4)cc3c2c1 (stereo not given) | -6.8 | 1.2
COc1ccc(CN(C)C[C@@H]2Oc3ccc(NC(=O)Nc4ccc(OC)cc4)cc3C(=O)N([C@@H](C)CO)C[C@@H]2C)cc1 | -4.1 | 2.2
CN(C)S(=O)(=O)Nc1ccc(Oc2ccccc2)cc1 | 1.1 | .
CC1Cc2ccccc2N1S(=O)(=O)c1ccc2c(c1)n(C)c(=O)c(=O)n2C (stereo not given) | 6.2 | .
CN(CCC#N)C(=S)Nc1ccc(F)cc1 | -1.4 | -0.1
COc1ccccc1N1C(=O)S/C(=C\c2ccccc2)C1=O | -3.9 | 0.5
COC(=O)C1=C(O)/C(=C/c2ccc(CNS(=O)(=O)c3ccccc3)o2)N=C1C | 3.9 | 0.4
Cn1c(=NC(=O)c2ccc(S(=O)(=O)N3CCCCC3)cc2)sc2c3ccccc3ccc21 | 11.7 | 0.0
C[C@H](CO)N1C[C@H](C)[C@@H](CN(C)C(=O)Nc2ccc(F)cc2)Oc2c(NC(=O)NC3CCCCC3)cccc2C1=O | -2.3 | .
CN(C)C(=S)SCC(=O)c1ccc(Cl)cc1 | -9.3 | -2.1
C[C@@H]1CN([C@H](C)CO)C(=O)c2cccc(NC(=O)Nc3ccc(F)cc3)c2O[C@H]1CN(C)C(=O)Nc1ccc2c(c1)OCO2 | -2.4 | .

The list goes on (three carried over from the part before).
Structure | BJeLR viability | A1 inhib
C[C@H](CO)N1C[C@H](C)[C@@H](CN(C)C(=O)Nc2ccc(F)cc2)Oc2c(NC(=O)NC3CCCCC3)cccc2C1=O | -2.3 | .
CN(C)C(=S)SCC(=O)c1ccc(Cl)cc1 | -9.3 | -2.1
C[C@@H]1CN([C@H](C)CO)C(=O)c2cccc(NC(=O)Nc3ccc(F)cc3)c2O[C@H]1CN(C)C(=O)Nc1ccc2c(c1)OCO2 | -2.4 | .
CN(C)c1ccc(/C=C(\C#N)C(N)=C(C#N)C#N)cc1 | 0.0 | 1.5
C[C@H](CO)N1C[C@H](C)[C@H](CN(C)Cc2ccc3c(c2)OCO3)Oc2c(NC(=O)c3cnccn3)cccc2C1=O | 4.3 | .
CCCN1C(=O)SC(CC(=O)Nc2ccc(C(=O)OCC)cc2)C1=O (stereo not given) | -2.0 | .
COc1cc(/C=C/CO[C@@H]2O[C@H](CO)[C@@H](O)[C@H](O)[C@H]2O)ccc1O | -5.2 | -0.2
C[C@H](CO)N1C[C@H](C)[C@H](CN(C)Cc2ccccc2)Oc2c(NC(=O)C3CC3)cccc2C1=O | -4.2 | .
Cc1nc(-c2cc(C#N)c(Sc3cccc(C(F)(F)F)c3)nc2C)cs1 | -2.2 | 0.0
C=CCOC(=O)c1sc(N2C(=O)c3oc4ccc(F)cc4c(=O)c3C2c2ccc(O)cc2)nc1C (stereo not given) | 4.4 | .
CC1COC(c2cccn2Cc2ccc(Cl)cc2)=N1 (stereo not given) | 1.3 | .
Cc1noc(C)c1NC(=O)Nc1cccc2c1O[C@@H](CN(C)S(=O)(=O)c1ccc(Cl)cc1)[C@H](C)CN([C@H](C)CO)C2=O | 0.0 | .
C[C@H](CO)N1C[C@H](C)[C@H](CN(C)Cc2ccc(Oc3ccccc3)cc2)Oc2c(NC(=O)C3CC3)cccc2C1=O | 2.3 | .
O=C(CSc1ncccc1C(=O)O)NC1CCCCC1 | 4.2 | -0.2
CCCN(CCC)C(=O)CC(c1ccccc1)c1cc(Br)ccc1O (stereo not given) | 3.9 | -0.6
O=C(CSc1nc2c(c(C(F)(F)F)n1)CCCCC2)NCCC1=CCCCC1 | 0.2 | .
CC(=O)NC1C(=O)N(C)N=C1c1ccccc1 (stereo not given) | -0.5 | 0.2
COc1ccc(S(=O)(=O)Nc2cccc3c2O[C@@H](CN(C)Cc2ccc(C(F)(F)F)cc2)[C@H](C)CN([C@H](C)CO)C3=O)cc1 | -10.1 | .
CCCNC(=S)N1CCC(C(=O)c2ccc(C)cc2)CC1 | 6.0 | -0.4
O=C(CSc1nc2ccccc2nc1N1CCCC1)Nc1ccccc1 | -1.5 | -0.6
Cc1cc(C(=O)Nc2cccc3c2O[C@H](CN(C)Cc2ccc(C(=O)O)cc2)[C@@H](C)CN([C@@H](C)CO)C3=O)n(C)n1 | 3.1 | .
Cc1ccc(Nc2nnc(-c3ccc(C)c(S(=O)(=O)NCC4CCCO4)c3)c3ccccc23)cc1 (stereo not given) | 4.8 | 0.8
CC1=NN(c2ccccc2)C(=O)C1C=NC1CCS(=O)(=O)C1 (stereo not given) | -2.5 | 0.1
C[C@]1(O)CC[C@@H]2C(C(=O)O)=CO[C@@H](O[C@@H]3O[C@H](COC(=O)/C=C/c4ccc(O)c(O)c4)[C@@H](O)[C@H](O)[C@H]3O)[C@@H]21 | -1.5 | -0.1
O=C(Nc1cccnc1)c1cc2c(s1)-c1ccccc1CC2 | 2.6 | -3.2
Cc1cc2c(cc(C(=O)NCc3ccc(Cl)cc3)n2Cc2ccc(Cl)cc2)o1 | -2.8 | -0.6
Cc1cc(C)c(S(=O)(=O)N2CCc3ccccc32)c(C)c1 | 15.6 | -0.9
CCc1ccc(N2C(=O)c3ccccc3NC2(C)C)cc1 | 0.3 | 0.7
C[C@@]12C[C@]3(O)O[C@H](O1)C1(COC(=O)c4ccccc4)[C@H]3C[C@@]12O[C@@H]1O[C@H](COC(=O)c2ccccc2)[C@@H](O)[C@H](O)[C@H]1O | 1.1 | -0.1
COc1ccc(CN(C)C[C@H]2Oc3ccc(NS(=O)(=O)c4ccc(OC)cc4)cc3C(=O)N([C@H](C)CO)C[C@H]2C)cc1 | -2.6 | -0.7

High-throughput results deposited in PubChem by Broad Institute.
